Source: PubChem (Fisher Drug Discovery Resource Center)
NPYLR7 agonist – agonists of mosquito NPYLR7 receptor, primary screen, cell-based, Aedes aegypti, calcium fluorescence, mosquito biting behavior. 270,000 compounds, 0.15% hits. Aedes aegypti neuropeptide Y-like receptor 7 (NPYLR7). activation, % at 10 µM. HEK293T NPYLR7/Galpha15, GCaMP6s calcium fluorescence. AID 1259423, 2018; in the data active = activation above about 40%;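 note: 0% = vehicle and 100% = reference agonist at the receptor; some compounds past the cut are filed as inactive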
NPYLR7 agonist max-min – further read-out of NPYLR7 agonist, marked with its call; activation, %; measured here: Max-Min RFU normalised activation; some inactives read as strong as hits;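 span of the calcium signal over five minutes; 0% = vehicle and 100% = native peptide agonist; compound fluorescence can raise it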
* hit, by the source's call. A portion of the library (hit frequency here may not be typical).

compound,NPYLR7 agonist,NPYLR7 agonist max-min
COc1ccccc1-c1cc(C(=O)O)c2[nH]c(C)nc2n1,-2,-3
CC(C)CC(C)OCCC(=O)N1CCC(O)CC1 (configuration not stated),0,-5
NC(=O)NN=Cc1c(F)c(F)c(F)c(F)c1F,2,-2
CC1CC(=O)NN1C(=O)/C=C/c1cn(-c2ccccc2)nc1-c1ccccc1 (configuration not stated),2,0
O=C(NC1CCN(CC2CCOC2)CC1)c1ccc(F)c(F)c1 (configuration not stated),3,0
COc1ccc(OC)c(NC(=O)Nc2cccc(-c3cn4nc(OC)ccc4n3)c2)c1,-2,-2
CCc1c(C(=O)NCc2ccco2)c(CC(C)C)nn1-c1cccc(C)c1,-3,10
CCN(CC)Cc1cnc2c(C(=O)N3CCC3c3cccs3)cnn2c1 (configuration not stated),25,17
O=C(c1cc(COc2ccc(F)cc2Cl)on1)N1CCCCC1c1ccccn1 (configuration not stated),4,3
N#Cc1cccnc1NCc1ccccc1Cl,1,0

Whole records, looked up by structure. Order of screens: NPYLR7 agonist	NPYLR7 agonist max-min
CCc1c(C(=O)NCc2ccco2)c(CC(C)C)nn1-c1cccc(C)c1 is listed with -3	10
CC(C)CC(C)OCCC(=O)N1CCC(O)CC1 (configuration not stated) is listed with 0	-5

Continued:
compound,NPYLR7 agonist,NPYLR7 agonist max-min
CCCCn1c(N)c(N(Cc2ccco2)C(=O)c2cc(C)cc(C)c2)c(=O)[nH]c1=O,1,0
Cn1ccsc1=NC(=O)CNC(=O)c1ccc(C(C)(C)C)cc1,8,7
CCN=c1scc(-c2cccc(Br)c2)n1/N=C\c1cccnc1,3,3
CC(=O)NCCNc1nc2cc(-c3ccc(C(=O)N4CCN(C)CC4)cc3)sc2c(=O)n1C,9,4
Cc1ccccc1Cc1nnc(NC(=O)CC2CNCCO2)s1 (configuration not stated),-2,-4
CN(Cc1cccnc1)c1nncc(-c2ccc(C3CCCCC3)cc2)n1,1,0
O=C(Nc1ccc(-n2nc(OCc3ccc(F)cc3)nc2-c2ccccc2F)cc1)c1ccc([N+](=O)[O-])cc1,25,31
Cc1cc2nc(N(Cc3ccccn3)C(=O)c3ccc(N4C(=O)CCC4=O)cc3)sc2cc1C,-4,-10
CC(C)c1onc(C(=O)N2CCOCC2)c1[N+](=O)[O-],3,2
Nc1nc(CSc2nnnn2C2CC2)nc(Nc2ccccc2)n1,7,12
CCOC(=O)C1(Cc2ccc(OC)cc2)CCN(C(=O)C(=O)c2ccccc2)CC1,3,2
CCOc1ccc(C2=NC(=Cc3ccccc3F)C(=O)O2)cc1OCC,-1,7
COC(=O)c1cccc(C(=O)NC2CC(=O)N(CCc3ccccc3)C2)c1 (configuration not stated),8,5
Cc1c(CCNS(=O)(=O)c2ccc3ccccc3c2)sc2nc(-c3ccc(Cl)cc3)nn12,-1,-3
CCOC(=O)c1c(NC2=CC(=O)CCC2)sc2c1CCCC2,-3,-6
CC1(C)N=C2C(=[N+]1[O-])CCC/C2=N/O,-10,-18
O=C(NCCn1ncc2c(=O)n(Cc3cccc(F)c3)cnc21)c1ccc2c(c1)OCO2,-3,-8
O=C(Cn1nc(C2CC2)c2cnn(-c3ccccc3)c2c1=O)NC1CCCC1,-2,-2
COCCCN(CC(=O)N1CCc2sccc2C1COc1cccc(OC)c1)C(=O)C1CCCC1 (configuration not stated),-3,4
Nc1cnc(Cl)nc1N,-1,-4

Gathered by group: those above with an aryl methoxy group.
compound,NPYLR7 agonist,NPYLR7 agonist max-min
COc1ccccc1-c1cc(C(=O)O)c2[nH]c(C)nc2n1,-2,-3
COc1ccc(OC)c(NC(=O)Nc2cccc(-c3cn4nc(OC)ccc4n3)c2)c1,-2,-2
CCOC(=O)C1(Cc2ccc(OC)cc2)CCN(C(=O)C(=O)c2ccccc2)CC1,3,2
COCCCN(CC(=O)N1CCc2sccc2C1COc1cccc(OC)c1)C(=O)C1CCCC1 (configuration not stated),-3,4

Additional results
compound,NPYLR7 agonist,NPYLR7 agonist max-min
COc1cc(NC(=O)CCC2CCCN(C(=O)c3scnc3C)C2)cc(OC)c1 (configuration not stated),2,-3
Cn1c(=O)[nH]c(=O)c2c1nc(N1CCN(Cc3ccc(F)cc3)CC1)n2CCCc1ccccc1,1,16
CSc1ccccc1N1C(=O)CN(Cc2cccn2-c2ccccn2)CC1C (configuration not stated),-1,-7
COCCNC(=O)C1(C)CCCN(Cc2csc(-c3ccc(Cl)cc3)n2)C1 (configuration not stated),3,0
COCc1ccc(CNC(=O)c2cc(F)cc(Br)c2)cc1,2,-1
O=C(CN(Cc1ccco1)C1CCS(=O)(=O)C1)Nc1ccccc1I (configuration not stated),5,2
Cc1nc2scc(C)n2c(=O)c1NC(=O)C1CCCC1,7,1
Cc1ccccc1C(C#N)C(=O)CCc1ccccc1 (configuration not stated),-1,-5
Cn1ccnc1CN1CCN(C(=O)c2cn(CCN3CCCCC3)nn2)CC1,5,0
O=c1cc(CN2CCCC2c2noc(C3CC3)n2)nc2sccn12 (configuration not stated),-10,-9

Next entries.
Molecule | NPYLR7 agonist | NPYLR7 agonist max-min
O=C(CSc1nc(=O)n(CCCO)c2c1CCC2)Nc1nccs1 | -16 | -19
C=C(C)COc1ccccc1C(=O)N1CCC[C@H]1COC | 2 | 1
COc1ccccc1C(NC(=O)C1CCN(CCCOc2ccccc2)CC1)c1ccccn1 (configuration not stated) | 5 | 7
COc1cccc(N=C2SC(C(=O)Nc3ccccc3OC)CC(=O)N2C)c1 (configuration not stated) | 1 | 0
CNc1cnc(-c2ccc(F)c(F)c2F)cn1 | -1 | -2
Cc1cnc(NC(=O)Cc2csc(-c3ccc(Cl)cc3)n2)s1 | 0 | 5
COc1ccc(C=C2N=C(c3ccc(OCCC(C)C)cc3)OC2=O)cc1OC | -3 | -7
COc1ccc(F)c(-c2nc(Cn3cnc(C)c3)c(C)o2)c1 | 21 | 5
O=C1C2C3C=CC(CC3)C2C(=O)N1/N=C\c1cc2c(cc1Br)OCO2 (configuration not stated) | 4 | 3
Cc1ccccc1CCC1CCCN(C(=O)c2nc3ncccn3n2)C1 (configuration not stated) | 3 | 1
Cc1nc2nc(N)nn2c(C)c1CCC(=O)N(C)Cc1ccc(Cl)cc1Cl | 5 | 5
CC(C)(C)P(=Nc1ccc([N+](=O)[O-])cc1)(c1ccncc1)N1CCCCCC1 (configuration not stated) | 2 | 0
Cc1ccc(-c2nnc(C(C)Nc3ccc4c(c3)OCCCO4)o2)cc1 (configuration not stated) | 10 | 3
Cc1csc(SCC(=O)N2CCc3c(cnc(C)c3CNC(=O)c3ccccc3F)C2)n1 | 20 | 11
COc1ccc(C(=O)N2CCN(c3cc(Cl)nc(SCC(=O)N4CCc5ccccc5C4)n3)CC2C)cc1 (configuration not stated) | 3 | 10
CCCOC(=O)C1=C(C)NC2=C(C(=O)CCC2)C1c1ccccc1OC(C)C (configuration not stated) | 1 | 2
O=C(NN=Cc1ccc(-c2ccc(Br)cc2)o1)c1ccccc1 | -6 | -10
Cc1cccc(Nc2nc3c([nH]2)c(=O)n(C)c(=O)n3C)c1 | -14 | -13
COc1ccc2c(c1)[C@@]1(C)CCC(=O)C[C@H]1CC2 | -12 | -13
O=C(Cc1ccccc1)NC1CCN(c2ccccc2C(=O)NCc2ccc(F)cc2)CC1 | -10 | -10
Fc1ccc(C(CNC(=S)NC2CC3CCC2C3)N2CCOCC2)cc1 (configuration not stated) | -2 | 1
O=C(N=Nc1c(O)n(CN2CCCCC2)c2ccccc12)c1ccc(Cl)cc1Cl | 4 | 1
CCS(=O)(=O)c1ccc(NCC(=O)Nc2ccc(C)cc2Cl)cc1 | -2 | -4
COCCN(Cc1cccc(OS(=O)(=O)c2ccc(F)cc2)c1)S(=O)(=O)c1ccc(OC)cc1 | -2 | 13
CC(C)NC(=O)C12CC3CCC(CC(C3)C1)C2 | 6 | 6
CC1(C(=O)Nc2ccc(Cl)c(Cl)c2)CCN1CCc1ccccc1 (configuration not stated) | 6 | 2
CCOC(=O)c1ccc2c(c1)nc(SCc1c(F)c(F)c(OC)c(F)c1F)n2Cc1ccco1 | 1 | -5
CSc1ncc(C(=O)N2CCN(S(=O)(=O)c3ccc(F)cc3F)CC2)n1-c1ccccc1 | 5 | 9
Cc1cccc(N2C(=O)C3C(C2=O)C2C=CC3C23CC3)c1 (configuration not stated) | 6 | 6
CCN1CCN(c2c(CN(CCCOC)S(=O)(=O)c3ccc(Br)cc3)c(C)nn2-c2ccccc2)CC1 | -1 | -4
CCN1CC(C(=O)NCCc2ccc(OC(F)(F)F)cc2)CC1=O (configuration not stated) | -1 | 1
CC1CC(C)CN(c2nc3c(c(=O)[nH]c(=O)n3C)n2CCCSc2nc3ccccc3o2)C1 (configuration not stated) | 0 | 36
CN(Cc1ccccc1)c1cccc(-n2ccnc2)n1 | 5 | 6
COC(=O)c1ccc(COn2c(=O)c(-c3ccc(C)cc3)[n+]([O-])c3ccccc32)cc1 | -6 | -6
COc1ccc(OC)c(CNC(=O)c2sc3ccccc3c2Cl)c1 | 3 | -1
Cc1c(C(=O)CSc2nccc(=O)[nH]2)c2ccccc2n1C | 9 | 7
O=[N+]([O-])c1c(N2CCOCC2)n[nH]c1-c1nnco1 | 4 | -1
OCC1(CCc2ccccc2)CCCN(Cc2cccn2-c2cccnc2)C1 (configuration not stated) | 21 | 7
Cc1ccc(C(=O)NCCC(=O)N2CCN3C(=O)CNC(=O)C3C2)cc1 (configuration not stated) | 5 | 4
O=C([C@H]1Cc2ccccc2CN1)N1C[C@H]2C[C@H](C1)[C@@H]1CCCC(=O)N1C2 | 1 | 14
CN(c1ccccc1)N1CC(C(=O)Nc2cccc3c2CCCC3)CC1=O (configuration not stated) | -14 | -18
O=C(O)CCn1c(Cc2ccccc2)n[nH]c1=O | 11 | 8
CC1(C)Cc2nc(C(C)(C)C)ncc2C(NC(=O)C2(C(N)=O)CC2)C1 (configuration not stated) | -3 | -7
CCc1nc2ccc(C(=O)NCCN(C)C)cn2c1N(CC)Cc1ccc(OC)c(OC)c1 | 9 | 16
Cc1ccc(S(=O)(=O)N2CCN(C(=O)NCCc3ccccc3)CC2)c(C)c1 | -1 | -1
CC(C)CN(CC(=O)Nc1cc(-c2ccccc2)nn1-c1ccc(F)cc1)C(=O)/C=C/c1ccccc1 | 6 | 11
COc1ccc2c(c1)C(C(=O)N1CCN(CC(=O)O)CC1)=CC(C)(C)O2 | 2 | 12
O=C(c1ccc2[nH]c3c(c2c1)CCCC3)N1Cc2cnn(CCO)c2C1 | -3 | -3
COCc1cc(C)nc(N/N=C\c2cccc(OCc3cccc4ccccc34)c2)c1C#N | 0 | 9
COCCNC(=O)c1ccc(CSc2nnc(-c3ccccc3Cl)n2-c2cccc(C)c2)cc1 | 0 | 3
CCc1cc(-c2ccc(C(=O)N(C)C)cc2)nc(N2CCCC2)n1 | -5 | -5
CCOC(=O)C1CCCN(c2cc(Oc3cccc(F)c3)ncn2)C1 (configuration not stated) | 18 | 25
O=S(=O)(c1cc(F)c(F)cc1F)N1CCN(c2nccc(-c3ccc(N4CCOCC4)cc3)n2)CC1 | -4 | -4
O=C(NC(c1ccc(-c2ccccc2)cc1)c1cnccn1)C1CCN(Cc2cccnc2)CC1 (configuration not stated) | -14 | -17
COc1ccccc1Cn1c(C(=O)N2CCN(C/C=C/c3ccccc3)CC2)cc2ccsc21 | -1 | 6
CCCNC(=O)Cn1nc(C2CC2)c2cnn(-c3cccc(Cl)c3)c2c1=O | 8 | 4
C#CC1(OCC(O)CN2CCCC(C)C2)CCCCC1 (configuration not stated) | 0 | 19
Cc1nc(C2CCN(Cc3ccc(C(F)(F)F)cc3)CC2)n[nH]1 | 3 | 3
CCOC(=O)C1CCN(C(=O)c2cc3n(n2)CCN(Cc2cccc(OC)c2)C3=O)CC1 | 2 | 1
COCCCN(Cc1csc(COc2c(OC)cccc2OC)n1)C(=O)c1ccc(Cl)cc1 | -2 | 4

5 compounds out of the list, sorted by SMILES length, ascending.
Molecule | NPYLR7 agonist | NPYLR7 agonist max-min
CCOC(=O)C1CCCN(c2cc(Oc3cccc(F)c3)ncn2)C1 (configuration not stated) | 18 | 25
CCc1cc(-c2ccc(C(=O)N(C)C)cc2)nc(N2CCCC2)n1 | -5 | -5
COCCNC(=O)c1ccc(CSc2nnc(-c3ccccc3Cl)n2-c2cccc(C)c2)cc1 | 0 | 3
O=C(NC(c1ccc(-c2ccccc2)cc1)c1cnccn1)C1CCN(Cc2cccnc2)CC1 (configuration not stated) | -14 | -17
O=S(=O)(c1cc(F)c(F)cc1F)N1CCN(c2nccc(-c3ccc(N4CCOCC4)cc3)n2)CC1 | -4 | -4

New compounds follow:
Molecule | NPYLR7 agonist | NPYLR7 agonist max-min
Cc1cnc(NC(C)CCn2cccn2)nc1N(C)C (configuration not stated) | 0 | 6
O=C1C=CC2C3C(=O)N(c4ccccc4)C(=O)C3C1N2c1ccccc1 (configuration not stated) | -4 | -6
COCCCn1c(=NC(=O)c2ccco2)c(C#N)cc2c(=O)n3cccc(C)c3nc21 | 3 | 1
CCc1nc2c(OCc3ccc(F)cc3)cccn2c1N(C)C(=O)c1cccs1 | 9 | -2
Cc1cc(C)n(-c2nc(NC(C)C)nc(NC(C)(C)C)n2)n1 | -6 | -14
CCCCN(CC(=O)N1c2ccccc2-n2cccc2C1c1ccc(OC)cc1)C(=O)Nc1ccc(C)c(C)c1 (configuration not stated) | 4 | 5
Cc1ccc(C2(O)CCN(C(=O)CN3CCOC3=O)CC2)nc1 | 1 | 0
CC(C)(C)c1ccc(CC(=O)N2CCC2(C)C(=O)NCCC#N)cc1 (configuration not stated) | 6 | 2
CSc1ccc(C2c3[nH]c4ccccc4c3CCN2C(=O)c2cc(C)n(C)n2)cc1 (configuration not stated) | 4 | -1
CC(CNC(=O)C1CC(=O)N(C)C1)N1CCc2ccccc21 (configuration not stated) | 1 | -1
Cc1ccccc1CSc1nc(Oc2ccc3c(c2)OCO3)cc(C(F)(F)F)n1 | 0 | 13
Cc1nc(SCC(=O)c2ccccc2)c2oc3ccccc3c2n1 | 5 | 16
NC(=O)N1CCCC1C(=O)NCc1ccc2[nH]c3c(c2c1)CCCCCC3 (configuration not stated) | 3 | 2
